# Compound activity: PubChem BioAssay, ICCB-Longwood Screening Facility, Harvard Medical School
# MbtI inh – blocks the Mycobacterium tuberculosis siderophore enzyme MbtI. purified MbtI enzyme, fluorescence intensity read-out. inhibition, %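 (about 17 µg/mL by stock and volumes)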. 100,000 compounds, 0.89% hits;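 active = above 50% in both replicates, above 80% if mildly self-fluorescent; inactive = the rest, strongly fluorescent compounds included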;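 note: 0% = mean of negative and 100% = mean of positive controls; one replicate is shown; some compounds called inactive have numbers as strong as hits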
# Target sequence (P9WFX0 whole entry, looked up): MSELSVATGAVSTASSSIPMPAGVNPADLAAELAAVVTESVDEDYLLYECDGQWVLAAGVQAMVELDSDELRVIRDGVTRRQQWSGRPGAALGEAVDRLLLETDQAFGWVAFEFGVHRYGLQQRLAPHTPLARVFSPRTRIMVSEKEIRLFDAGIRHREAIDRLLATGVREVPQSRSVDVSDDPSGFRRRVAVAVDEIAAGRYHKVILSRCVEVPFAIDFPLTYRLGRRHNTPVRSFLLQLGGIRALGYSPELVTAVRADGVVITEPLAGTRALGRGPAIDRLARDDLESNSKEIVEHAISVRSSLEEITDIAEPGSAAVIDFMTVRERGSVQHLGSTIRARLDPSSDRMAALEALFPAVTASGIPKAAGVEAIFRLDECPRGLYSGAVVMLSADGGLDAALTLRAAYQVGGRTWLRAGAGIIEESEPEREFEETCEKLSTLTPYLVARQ
# Polio RdRp inh – poliovirus RNA polymerase inhibition; P03300; % elongation, % (compound at 16.7 µg/mL); poliovirus polymerase elongation, fluorescence polarization; active compounds read low; 150,000 compounds, 0.66% hits; in the data active = % elongation below about 90%; note: some results filed as inactive read as strong as hits
# Target sequence (P03300 1749-2209 limits assumed): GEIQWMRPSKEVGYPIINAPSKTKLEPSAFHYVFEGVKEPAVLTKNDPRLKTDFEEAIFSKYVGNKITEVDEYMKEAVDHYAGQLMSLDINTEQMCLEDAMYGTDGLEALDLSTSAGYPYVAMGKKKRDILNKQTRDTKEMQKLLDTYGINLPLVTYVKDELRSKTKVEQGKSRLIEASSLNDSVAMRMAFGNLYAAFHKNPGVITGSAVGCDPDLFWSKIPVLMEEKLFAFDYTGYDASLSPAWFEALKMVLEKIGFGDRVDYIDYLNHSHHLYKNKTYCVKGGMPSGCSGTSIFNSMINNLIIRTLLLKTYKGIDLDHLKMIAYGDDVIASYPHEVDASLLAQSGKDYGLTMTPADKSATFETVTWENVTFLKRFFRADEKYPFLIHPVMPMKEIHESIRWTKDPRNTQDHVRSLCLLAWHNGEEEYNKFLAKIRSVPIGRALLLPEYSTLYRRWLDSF
# MenB inh – Mtb MenB enzyme inhibition | MenB enzyme assay, absorbance read-out; some hits fall short of the stated cut | inhibition, %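 (about 12 µg/mL by stock and volumes)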 | 100,000 compounds, 0.43% hits | AID 540299;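 active = mean of two replicates above 30%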;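 note: 0% = no compound and 100% = wells with inactive enzyme; the first replicate is given; strong numbers were not always called active; inactives centre near -10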
# Polio RdRp inh intensity – recorded beside Polio RdRp inh, whose call it bears; % elongation; measured here: total intensity read-out; formula for this scale not given here;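 total fluorescence in place of polarization; lower means less elongation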
# Numbers without * were called inactive; i = inactive; . = no result given; & = joins results of further samples; ! = a repeat was not active.
1	C=C(C)C(=O)Nc1ccc(Oc2ccccc2F)nc1
2	Cn1c(O)c(/C=N/c2sc3c(c2C#N)CCC3)c(=O)n(C)c1=O
3	CC(C(=O)O)N1CCCC1 (configuration not stated)
4	Nc1ccc2nc(C(F)(F)F)[nH]c2c1
5	O=c1c2c3c(sc2ncn1Cc1ccccc1)CCC3
6	CCCCc1ccc(NC(=O)CC#N)cc1
compound no. | 1 | 2 | 3 | 4 | 5 | 6
MbtI inh | -14 | 11 | -9 | 5&88 | 14 | 0
Polio RdRp inh | 107 | 102 | 103 | 101&102 | 110 | 103
Polio RdRp inh intensity | 111 | 113 | 103 | 102&102 | 96 | 102
MenB inh | -17 | -44 | -5 | 5&-51 | 13 | .

7	Cc1[nH]n(-c2ccccc2)c(=O)c1C=Nc1ccc(S(=O)(=O)N=C(N)N)cc1
8	Cc1cc(C)nc(NNS(=O)(=O)c2ccc(Cl)cc2)n1
9	CS(=O)(=O)N(CC(=O)Nc1ccccc1)Cc1ccc(Cl)cc1
10	O=C(CC1=NS(=O)(=O)c2ccccc2N1)NCc1ccc(F)cc1
11	COc1ccc2[nH]cc(-c3csc(N)n3)c2c1
12	COc1ccc(C(=O)NCCn2cc(SCC(=O)Nc3ccccc3)c3ccccc32)cc1
compound no. | 7 | 8 | 9 | 10 | 11 | 12
MbtI inh | -6 | 37 | -14 | -24 | 34 | -5
Polio RdRp inh | 103 | 97 | 101 | 102 | 99 | 102
Polio RdRp inh intensity | 107 | 104 | 102 | 101 | 176 | 108
MenB inh | -40 | 7 | -5 | -25 | -66 | -18

13	COCC(=O)Nc1nc2nc(-c3ccccc3)cc(=O)n2[nH]1
14	COCCCn1c(SCC(=O)N2CC(=O)Nc3ccccc32)nnc1-c1ccoc1C
15	O=c1cc(-c2cccnc2)nc2cc(-c3ccco3)[nH]n12
16	Cc1ccc2c(COC(=O)c3ccc(N(C)C)cc3)cc(=O)oc2c1
17	CC1CC2c3cccc(C(=O)O)c3C(=O)N2c2ccc(Cl)cc21 (configuration not stated)
18	CCOC(=O)c1ccccc1NC(=O)C12CC3CC(CC(C3)C1)C2
compound no. | 13 | 14 | 15 | 16 | 17 | 18
MbtI inh | 15 | -3 | -3 | 2 | i | 0
Polio RdRp inh | 100 | 101 | 102 | 103 | 100 | 101
Polio RdRp inh intensity | 103 | 101 | 100 | 98 | 105 | 106
MenB inh | 7 | 4 | -22 | -24 | . | 1

19	CN1/C(=C/C#N)Sc2ccccc21
20	Cc1c(NC(=O)Nc2ccccc2)sc2nc(-c3ccc(Cl)cc3)nn12
21	CC(=O)Nc1nc2nc(C(F)(F)F)cc(=O)n2[nH]1
22	Cc1cc(-n2cnc(-c3cn[nH]c3C)n2)no1
23	COc1ccccc1C(=O)O
24	Cc1noc(/C=C/N(C)C)c1S(=O)(=O)N(C)Cc1ccccc1
compound no. | 19 | 20 | 21 | 22 | 23 | 24
MbtI inh | 34 | 52 | . | 19 | . | -10
Polio RdRp inh | 111 | 102 | 105 | 102 | 105 | 103
Polio RdRp inh intensity | 185 | 104 | 113 | 95 | 107 | 103
MenB inh | -224 | -15 | -2 | 15 | -12 | -6

25	Cc1noc(C)c1COC(=O)c1cc(Cl)cc(Cl)c1
26	Nc1c2c3c(sc2nc(=O)n1Cc1ccco1)CCC3
27	Cn1c(SCc2ccccc2)nnc1C1CCCN1S(=O)(=O)c1ccc2c(c1)OCCO2 (configuration not stated)
28	CCC1CCCCN1C(=O)CSc1ccc(C)cc1 (configuration not stated)
29	Oc1ccccc1/C=N/[n+]1ccccc1
30	CCN1CCSc2ccc(C(=O)NCc3ccc4c(c3)OCO4)cc21
compound no. | 25 | 26 | 27 | 28 | 29 | 30
MbtI inh | 10 | -1 | -9 | -2 | 1 | 116
Polio RdRp inh | 103 | 100 | 101 | 101 | 106 | 98
Polio RdRp inh intensity | 102 | 101 | 98 | 95 | 104 | 100
MenB inh | -9 | -6 | -19 | . | . | -21

31	O=C(NCCN1C(=O)C2C3C=CC(C3)C2C1=O)Nc1cccnc1 (configuration not stated)
32	COc1ccc(/C=C(\NC(=O)c2ccccc2)C(=O)N2CCOCC2)cc1
33	CN1CCN(C(=S)NCC2CCCO2)CC1 (configuration not stated)
34	C1=C(c2ccccc2)Nc2ncnn2C1c1cccs1 (configuration not stated)
35	Cc1cc2c(NC(=O)COCC(=O)O)cccc2nn1
36	C=C(C)CC(Nc1ccc(C)cc1)c1ccco1 (configuration not stated)
compound no. | 31 | 32 | 33 | 34 | 35 | 36
MbtI inh | 11 | -69 | -11 | 106 | 2 | .
Polio RdRp inh | 100 | 106 | 101 | 68 | 65* | 100
Polio RdRp inh intensity | 97 | 98 | 102 | 195 | 76* | 100
MenB inh | -14 | -61 | 16 | -28 | 8 | -3

37	O=C1N(c2ccccc2)c2ccccc2C1(O)C(F)(F)F (configuration not stated)
38	Cc1ccccc1OCC1=NN2C(=N)/C(=C\c3cccn3-c3cccc(Cl)c3)C(=O)N=C2S1
39	CCN1CC(C(=O)O)CC1=O (configuration not stated)
40	Cc1ccc(CNC(=O)CCS(=O)(=O)c2ccc(Br)s2)cc1
41	COc1ccc(NC(=O)Cc2c(O)c3ccccc3[nH]c2=O)cc1
42	O=C(Cn1c(=O)cnc2ccccc21)N1CCN(S(=O)(=O)c2ccccc2)CC1
compound no. | 37 | 38 | 39 | 40 | 41 | 42
MbtI inh | -4 | -4 | -8 | -7 | -35 | -22
Polio RdRp inh | 100 | 108 | 100 | 102 | 100 | 103
Polio RdRp inh intensity | 108 | 116 | 98 | 107 | 101 | 104
MenB inh | -6 | -20 | -17 | -14 | -27 | -14

43	Cc1ccc(Cc2c(C)nc3c(C(=O)NC4CCCC4)cnn3c2C)cc1
44	CNC(=O)c1ccc(Oc2ccc(C(=O)NC)cc2)cc1
45	N#Cc1ccc(OCC(=O)N(C2CCCCC2)C2CCS(=O)(=O)C2)cc1 (configuration not stated)
46	CC1(C)CC(N2COc3ccc4c5c(oc4c3C2)C(=O)c2ccccc2C5=O)CC(C)(C)N1
47	Cc1cc(C(=O)COC(=O)C2CCN(S(=O)(=O)c3cccs3)CC2)c(C)n1C
48	Cc1cc(OC(=O)CNC(=O)OCc2ccccc2)cc2oc(=O)c3ccccc3c12
compound no. | 43 | 44 | 45 | 46 | 47 | 48
MbtI inh | -3 | -3 | -19 | 18 | -1 | .
Polio RdRp inh | 102 | 101 | 107 | 96 | 101 | 96
Polio RdRp inh intensity | 98 | 103 | 105 | 92 | 111 | 88
MenB inh | -21 | 8 | -13 | -13 | 1 | -16

49	O=C(/C=C/c1ccc(Br)o1)OCC(=O)c1c[nH]c2ccccc12
50	COc1cc2c(cc1NC(=O)C(C)Sc1nc3ccccc3n1C)oc1ccccc12 (configuration not stated)
51	O=C(O)/C(=N\NC(=O)c1ccccc1)c1ccccc1
52	CC(NC(=O)OC1CCCC1)(C(F)(F)F)C(F)(F)F
53	CCCOC(=O)c1cc2ccccc2oc1=O
54	CCOC(=O)c1[nH]c(COC(=O)c2ccc(Cl)c(S(=O)(=O)N3CCOCC3)c2)c(C(=O)OCC)c1C
compound no. | 49 | 50 | 51 | 52 | 53 | 54
MbtI inh | 8 | -12 | 35 | 1 | 68 | 0
Polio RdRp inh | 106 | 106 | 101 | 103 | 105 | 102
Polio RdRp inh intensity | 123 | 110 | 103 | 102 | 102 | 95
MenB inh | -5 | 2 | -9 | 7 | -21 | 6

55	CCC(Sc1nc2c(sc3ccccc32)c(=O)n1CCCOC)C(=O)N1CCOCC1 (configuration not stated)
56	O=C(Nc1cc(C(=O)Nc2ccccc2O)cc(C(=O)Nc2ccccc2O)c1)c1ccccc1
57	CC(C)NCC(O)c1ccc2ccccc2c1 (configuration not stated)
58	CCn1cc(C(=O)O)c(=O)c2cc3c(cc21)OCO3
59	COc1ccc(Nc2cc(C(=O)NCCN3CCCC3)c3ccccc3n2)c(OC)c1
60	O=C(C1CCCO1)N1CCC2(CC1)OCCO2 (configuration not stated)
compound no. | 55 | 56 | 57 | 58 | 59 | 60
MbtI inh | -8 | . | -4&-8 | -1&-23 | 2 | -12
Polio RdRp inh | 99 | 105 | 97&101 | 102&99 | 101 | 104
Polio RdRp inh intensity | 99 | 111 | 101&104 | 104&101 | 100 | 103
MenB inh | -12 | -19 | -35&-70 | -7&-4 | -16 | -11

61	COc1ccc2c(c1)c(=O)oc1c(CN(C)C)c(O)ccc12
62	CC(=O)OCc1ccc(C=C(C#N)C#N)o1
63	CCCC(=O)Nc1cc(Cl)ccc1OC
64	CC(O)CNc1c[nH]c(=O)[nH]c1=O (configuration not stated)
65	CCn1cc(C(=O)O)c(=O)c2cnc(N3CCCC3)nc21
66	Cc1onc(-c2ccccc2)c1C(=O)NCc1ccccc1
compound no. | 61 | 62 | 63 | 64 | 65 | 66
MbtI inh | 13 | 17 | -6 | 3 | -2&-17 | -12
Polio RdRp inh | 100 | 100 | 99 | 100 | 100&101 | 108
Polio RdRp inh intensity | 100 | 101 | 102 | 103 | 100&102 | 107
MenB inh | -38 | -2 | -18 | 1 | -11&4 | -13

67	Cc1sc2ncnc(N3CCC(C(=O)NC4(C)CCS(=O)(=O)C4)CC3)c2c1C (configuration not stated)
68	COc1ccc(C#N)cc1Br
69	c1ccc(-c2nc(C34CC5CC(CC(C5)C3)C4)co2)cc1
70	COc1ccc(-c2cn(-c3ccc(Br)cc3)c(=O)[nH]2)cc1
71	S=c1nc(-c2csc3c2CCCC3)[nH][nH]1
72	Cc1cc(=O)n2[nH]c(C(=O)N3CCCC3)nc2n1
compound no. | 67 | 68 | 69 | 70 | 71 | 72
MbtI inh | 9 | -6 | 14 | 1 | 92 | -5
Polio RdRp inh | 102 | 107 | 101 | 102 | 97 | 101
Polio RdRp inh intensity | 106 | 108 | 106 | 107 | 99 | 105
MenB inh | -3 | -4 | -7 | -6 | -113 | -16

73	CCc1[o+]c(-c2ccc(OC)cc2)cc2cc(OC)c(OC)cc12
74	CC1(C)CC(=NOC(=O)c2ccccc2)CC(C)(C)N1
75	COc1ccc(CCNC(=O)CC(c2ccccc2)c2cc(Br)ccc2O)cc1OC (configuration not stated)
76	CSC1=NCCN1C(=O)c1cc2ccccc2o1
77	COc1ccc(OCc2nnc(N)s2)cc1
78	O=C(CCCCCN1C(=O)c2ccccc2C1=O)Nc1nccs1
compound no. | 73 | 74 | 75 | 76 | 77 | 78
MbtI inh | . | 1 | -4 | 4 | . | 10
Polio RdRp inh | 102 | 96 | 102 | 100 | 100 | 101
Polio RdRp inh intensity | 102 | 106 | 108 | 104 | 93 | 103
MenB inh | -18 | -16 | -12 | -20 | -8 | -23

79	CC(C)c1ccc(C2C3=C(CCCC3=O)NC3=C2C(=O)c2ccccc23)cc1 (configuration not stated)
80	CC1(C)C(C(=O)Nc2cc(Cl)ccn2)C1(C)C
81	NC(=O)COC(=O)Cc1ccc(Cl)cc1
82	CCN(CC)c1ccc(C(=O)OCC(=O)Nc2ncccn2)cc1
83	CN1/C(=C\C=N\NC(=O)Cc2cn3ccsc3n2)C(C)(C)c2ccccc21
84	CCCC(CCC)C(=O)NC1CCN(Cc2ccccc2)CC1
compound no. | 79 | 80 | 81 | 82 | 83 | 84
MbtI inh | -6 | -4 | 8 | -5 | -2 | .
Polio RdRp inh | 97 | 100 | 101 | 104 | 119 | 105
Polio RdRp inh intensity | 101 | 102 | 102 | 104 | 141 | 111
MenB inh | -1 | -34 | 2 | -15 | -68 | -1

85	CC(C)C(=O)N=c1sc2cccc(F)c2n1C
86	Cc1ccc2c(c1)N(CC(=O)N1CCCC1)C(=O)C(C)O2 (configuration not stated)
87	C=CCSc1nc(O)cc(=O)n1C
88	Cc1cccc(/C=N/N(C)C)c1
89	Cc1ccc(-n2c(-c3ccco3)nc3nc4ccccc4nc32)cc1
90	CCN1CC(C)C(O)(c2ccccc2)CC1C (configuration not stated)
compound no. | 85 | 86 | 87 | 88 | 89 | 90
MbtI inh | -2 | -7 | -9 | 3 | 44 | .
Polio RdRp inh | 107 | 100 | 98 | 103 | 99 | 105
Polio RdRp inh intensity | 97 | 100 | 104 | 108 | 110 | 104
MenB inh | -37 | 0 | -244 | -9 | 5 | 3

91	CCOc1ccc2oc(C(=O)Nc3ccc(S(C)(=O)=O)cc3)c(C)c2c1
92	O=c1c2c(-c3cccs3)csc2[nH]c(=S)n1-c1ccccc1
93	O=C1CSc2ccc(C(=O)NC3CCCCCC3)cc2N1
94	Cc1ccc(-c2ccc(NC(=O)c3ncoc3-c3ccc(F)cc3)cc2)o1
95	COc1ccc(CC(=O)OC2CCCN(C)C2)cc1 (configuration not stated)
96	CCOC(=O)c1sc(/S(C)=N/C(=O)Nc2ccccc2Cl)c2c1CCC=C2 (configuration not stated)
compound no. | 91 | 92 | 93 | 94 | 95 | 96
MbtI inh | 12 | 99*! | -7 | 4 | 1 | -16
Polio RdRp inh | 116 | 83*! | 101 | 101 | 102 | 106
Polio RdRp inh intensity | 125 | 82*! | 105 | 103 | 101 | 110
MenB inh | -8 | -43&-53 | 10 | 9 | -10 | 1

97	CCNc1c(NC(=O)c2cc(OC)c(OC)c(OC)c2)c(=O)oc2ccccc12
98	CCn1c(C(=O)N2CCC(C(=O)NC(C)c3ccccc3)CC2)cc2sccc21 (configuration not stated)
99	O=C(O)c1cccc(Cn2cc(Cl)cn2)c1
100	Cc1ccc(C(=O)COC(=O)CCc2nc3ccccc3[nH]c2=O)cc1C
101	OC(Cn1ccnc1)n1c(-c2ccccc2)nc(-c2ccccc2)c1-c1ccccc1 (configuration not stated)
compound no. | 97 | 98 | 99 | 100 | 101
MbtI inh | 3 | 3 | -9 | 14 | -15
Polio RdRp inh | 103 | 103 | 104 | 101 | 100
Polio RdRp inh intensity | 104 | 102 | 101 | 102 | 106
MenB inh | -10 | -5 | . | 13 | -1
